# Bst PK mod = Pyruvate Kinase. Potency, µM. partly purified Bacillus stearothermophilus pyruvate kinase, luminescence ATP production; ribose 5-phosphate activator present at AC10. 51,000 tested, 1.2% active. AID 361, 2006; in the data active means potency below about 11 µM; inconclusive means mostly about 12 µM to 25 µM; inactive means weaker than that;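 the screen sought inhibitors and activators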;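 further: potency means the concentration at half of the fitted maximal effect; scaled between full activation by ribose 5 phosphate and full inhibition by luteolin; about four in five hits inhibit and the cells do not say which; series up to 57 µM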
# YjeE inh = qHTS Assay for Inhibitors of YjeE; Potency, µM; purified YjeE, fluorescence polarisation of a bound ADP probe; tRNA threonylcarbamoyladenosine biosynthesis protein TsaE (Escherichia coli (strain …; 71,000 tested, 0.05% active; active = well fitted falling curve; inconclusive = weaker or top-dose-only fall, or a rising curve; inactive = flat or poorly fitted curve;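 further: top concentration of the series not given in the record; excess ADP was the control for the full effect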
#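 Purified YjeE (10 uM) with BODIPY Texas Red-labeled ADP probe (2 uM); compounds pin-transferred, 15 min at room temperature. Binding inhibition read as decreased fluorescence polarization; ADP titration as control.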
# * = called active by the depositor; i = inactive; ? = inconclusive; . = no result given.
Bst PK mod | YjeE inh | canonical_smiles
. | i | c1csc(CCNc2ncnc3sc4c(c23)CCC4)c1
. | i | COc1ncc2nc(-c3cccs3)c(=O)n(Cc3ccc(F)cc3)c2n1
>57 | i | COc1ccc(NC(=O)CSc2nc3sc(C)c(C)c3c(=O)n2Cc2ccco2)cc1
>57 | i | Cc1ccc2c(c1)CCCN2C(=O)c1cccs1
>57 | i | COc1cc(OC)c(OC)cc1CNCCNC(=O)c1nonc1N
>57 | i | Cc1nc2ccccn2c1-c1csc(NCc2ccco2)n1
>57 | i | CC(O)CNC(=O)C1CCN(Cc2ccc(OCc3ccccc3)cc2)CC1 (configuration not stated)
>57 | i | COc1ccc(-c2cnc(N)nc2-c2ccc(OC)cc2O)cc1
>57 | i | CCCCCCn1c(CN2CCC(C)CC2)nc2c1c(=O)n(C)c(=O)n2C
>57 | i | Cc1ccc2cc(CN(CCCN3CCOCC3)C(=O)NC3CCCCC3)c(=O)[nH]c2c1C
>57 | i | O=C(/C=N/O)NCc1cccnc1
. | i | Nc1nc2c(ncn2COC(CO)CO)c(=O)[nH]1
>11 | i | CC(=O)NS(=O)(=O)c1ccc(N)cc1
>57 | i | O=C(C1CC1)N1CCc2cc(Br)cc(S(=O)(=O)N3CCN(c4ccccn4)CC3)c21
>57 | i | CN1CCCCCC1=NC1=C(C#N)CCCC1
>57 | i | CC1CN(C(=O)COC(=O)c2cccs2)CC(C)O1 (configuration not stated)
>57 | i | Cn1c(Br)nc2c1c(=O)n(CC(O)COc1ccccc1)c(=O)n2C (configuration not stated)
. | i | O=C(c1nnc(Cc2ccc(Cl)cc2)o1)N1CCOCC1
. | i | COC(=O)c1ccc(NC(=O)CSc2nnc(Cc3cccn3C)n2-c2ccc(F)cc2)cc1
>26 | . | COc1cccc(C2=CC(c3ccc(N(C)C)cc3)n3nnnc3N2)c1 (configuration not stated)
>57 | i | Cn1c(=O)c2ncn(CC(=O)Nc3cc(C(F)(F)F)ccc3N3CCOCC3)c2n(C)c1=O
. | i | CCC(=O)N1CCN(C(=O)c2ccccc2)CC1
>57 | i | CCOC(=O)CN1C(=O)C(C)(C)Oc2ccc(C(=O)Nc3ccccc3OC)cc21
>57 | i | CS(=O)(=O)N(CC(=O)N1CCC(C(N)=O)CC1)C1CCCCC1
. | i | CCOC(=O)CSc1nc2ccc(NC(C)=O)cc2s1
. | i | CS(=O)(=O)N1CCN(c2nc(-c3ccccc3)cs2)CC1
i | i | Cc1occc1C(=O)Nc1cccc2ccccc12
>57 | i | Cc1cc2ncn(N)c2cc1C
6.4* | i | Cn1c(C(=O)Nc2ccc3c(c2)OCO3)cc2sccc21
. | i | CN(C)C(=O)COc1ccc2ccc(=O)oc2c1
>57 | i | CC(=O)c1n[nH]nc1Nc1nc(C)cc(C)n1
. | i | COc1ccc(OCCSc2ncccn2)cc1
. | i | CCOC(=O)Cc1csc(NC(=O)CSc2nnnn2-c2ccc(F)cc2)n1
. | i | Cc1ccccc1OCC(=O)Nc1cccc(N(C)S(C)(=O)=O)c1
>57 | i | O=C(O)CS(=O)(=O)CC(=O)O
>57 | i | COc1ccc(C(=O)N(Cc2ccco2)Cc2cc3cc(C)ccc3[nH]c2=O)cc1OC
>57 | i | CCn1cc(C(=O)N2CCN(c3ccccn3)CC2)c2cc(OC)c(OC)cc2c1=O
. | i | CCC(C)Sc1nnc(Cc2cc(=O)[nH]c(=O)[nH]2)n1-c1ccc(OC)cc1 (configuration not stated)
. | i | Cc1ccccc1Cn1ccc(NC(=O)c2onc(C)c2Cl)n1
>57 | i | O=C(CSc1nnnn1Cc1ccccc1)NCCc1ccccc1
. | i | O=C(c1cnccn1)N1CCC2(CCCN(c3ccccc3)C2)CC1
. | i | CC/C(CC(C)(C)c1ccccc1)=N\O
. | i | COc1ccc(OC)c(CN2C(=O)c3ccccc3C2C(=O)NCc2cccnc2)c1 (configuration not stated)
. | i | CCc1nnc(NC(=O)C2CCCCC2)s1
>57 | i | CCOC(=O)C(NC(=O)CC)(Nc1cc(C)on1)C(F)(F)F (configuration not stated)
>57 | i | Cc1ccc(C(=O)C2COC(=O)C2)cc1 (configuration not stated)
. | i | Nc1cc(-c2ccccc2)ccc1O
. | i | O=C(O)c1ccc(OCc2ccccc2)c(Cl)c1
>57 | i | Cn1c(=O)[nH]c(=O)c2c1nc(NCCCn1ccnc1)n2Cc1cccc(Br)c1
. | i | NC(=O)CSc1nnc(Cn2c(=O)sc3ccccc32)n1CCc1ccccc1
>57 | i | NC(=O)CCn1c(=O)oc2ccccc21
>57 | i | CCn1cnc2cc(NCc3ccncc3)ccc21
>57 | i | O=C(CC1N=C2c3ccccc3N=C(SCc3ccccc3Cl)N2C1=O)NCc1ccco1 (configuration not stated)
. | i | COC(=O)[C@@]1(Cc2ccc(OC)cc2)[C@H]2c3cc(C(=O)N(C)C)n(Cc4ccccc4)c3C[C@H]2CN1C(=O)c1ccccc1
>57 | i | NC(=O)C1CCN(c2nc(C3CC3)nc3c2nnn3Cc2ccccc2)CC1
. | i | O=C(NCc1cccs1)c1csc2ccccc12
>57 | i | COCCn1nnnc1C(c1ccc(Cl)cc1)N1CCSCC1 (configuration not stated)
>57 | i | CCOC(=O)c1ccccc1NC(=O)CSc1ncc(C(=O)OCC)c(N)n1
. | i | CCOC(=O)OCC
. | i | O=c1cc(-c2ccc(Cl)cc2)[nH][nH]1

# Next section.
Bst PK mod | YjeE inh | canonical_smiles
>57 | i | O=C(O)Cn1cc(C(=O)c2ccco2)c2ccccc21
. | i | COc1ccc(CCNC(=O)c2cnn3ccccc23)c(OC)c1OC
>57 | i | Cc1ccc(S(=O)(=O)N2CCN(c3ncnc4c3cnn4-c3ccccc3)CC2)cc1
>57 | i | CCn1c(CNc2ccccc2Cl)nnc1SCCN1CCCCC1
>57 | i | O=C(O)C1CCCN1c1ncccn1 (configuration not stated)
. | i | NS(=O)(=O)c1ccc(NS(=O)(=O)/C=C/c2ccccc2)cc1
>57 | i | CCCCC(=O)Nc1ccc2c(c1)nc1n2CCOC1
. | i | CC(=O)c1cccc(NC(=O)CN(C2CCCCC2)S(C)(=O)=O)c1
>57 | i | Cc1cc(C)nc(SCc2nnc(SCC(=O)Nc3ccc(Cl)c(C(F)(F)F)c3)o2)n1
>57 | ? | COc1ccc2cc(C(c3nnnn3CCc3ccccc3)N3CCC(O)CC3)c(=O)[nH]c2c1 (configuration not stated)
>57 | i | Cc1cccc(-n2nnc(C(=O)NCc3ccco3)c2N)c1
>57 | i | O=C(CS(=O)(=O)c1cn(Cc2cccc(F)c2)c2ccccc12)N1CCOCC1
>26 | . | Cc1sccc1C1C(C#N)=C(N)SC(N)=C1C#N
>57 | i | Cc1cccc2cc(C(c3nnnn3Cc3ccc4c(c3)OCO4)N3CCCC3)c(=O)[nH]c12 (configuration not stated)
>57 | i | COc1ccccc1C1C(C(N)=O)=C(C)Nc2ncnn21 (configuration not stated)
. | i | O=c1[nH]c2cc(Cl)ccc2c(O)c1-c1ccc(Oc2ccccc2)cc1
>57 | i | COc1ccc(-c2cc(C(F)(F)F)nc(SCCC(=O)N3CCN4CCCC4C3)n2)cc1 (configuration not stated)
. | i | O=C(CSc1nc2ccccc2c(=O)[nH]1)c1cccs1
>57 | i | C=CCN1C(=Nc2ccccc2)SC/C1=C\C(=O)OC
>26 | . | CCOC(=O)CCCCC(=O)NC(CO)C(=O)NC (configuration not stated)
11* | i | O=C(CSc1nnnn1-c1cccc2c1CCCC2)N1CCOCC1
. | i | COc1cc(-c2nc(-c3ccncc3)no2)cc(OC)c1OC
. | i | CS(=O)(=O)N1CCC2(CCN(Cc3ccc(C#N)cc3)CC2)CC1
>57 | i | Cc1c(NC(=O)C2Cc3ccccc3CN2C(=O)c2ccco2)c(=O)n(-c2ccccc2)n1C (configuration not stated)
. | i | CN(Cc1ccccc1)C(=O)CCCn1c(=O)[nH]c2cc(Cl)ccc2c1=O
>57 | i | Cc1ccc(O)c(CNc2ccccn2)c1
>57 | i | COc1ccccc1Nc1nc(N)nc(CN2CCN(Cc3ccccc3)CC2)n1
>57 | i | O=C(Nc1ccccc1C(F)(F)F)c1cc(-c2ccc(O)cc2)on1
i | i | COc1ccc(-n2c(C)nc3c(cnn3-c3ccc(Cl)cc3)c2=O)cc1
. | i | CC(C)CCNC(=O)Cn1c(NCCC(C)C)nc2c1c(=O)n(C)c(=O)n2C

# Continued, starting with the last 5 of the part before.
Bst PK mod | YjeE inh | canonical_smiles
>57 | i | Cc1ccc(O)c(CNc2ccccn2)c1
>57 | i | COc1ccccc1Nc1nc(N)nc(CN2CCN(Cc3ccccc3)CC2)n1
>57 | i | O=C(Nc1ccccc1C(F)(F)F)c1cc(-c2ccc(O)cc2)on1
i | i | COc1ccc(-n2c(C)nc3c(cnn3-c3ccc(Cl)cc3)c2=O)cc1
. | i | CC(C)CCNC(=O)Cn1c(NCCC(C)C)nc2c1c(=O)n(C)c(=O)n2C
. | ? | c1cn(-c2cc(-c3ccc4c(c3)OCO4)ncn2)cn1
>57 | i | C/C(CC(O)(/C=N/O)c1ccccc1)=N\O (configuration not stated)
. | i | COc1cc(C)c(N(C(C)=O)c2ccccc2)c(C)c1
>57 | i | CCOC(=O)C(C#N)c1ccccn1 (configuration not stated)
. | i | O=c1[nH][nH]c(=S)c(=O)[nH]1
>57 | i | COc1ccc(-c2nnc3sc(CCN4C(=O)c5ccccc5C4=O)nn23)cc1
i | i | Nc1nc(-c2ccc(Cl)cc2)cc(C(F)(F)F)n1
. | i | O=C(Nc1nnc(C2CC2)o1)c1ccc(S(=O)(=O)N2CCCc3ccccc32)cc1
. | i | COCC(=O)O
>57 | i | CCCCC(=O)NCCc1ccc(S(N)(=O)=O)cc1
>57 | i | Cc1nn(CC(=O)NCCc2ccccc2)c(=O)c2ccccc12
. | i | CCCCOC(=O)c1ccc(NC(=O)CSCc2n[nH]c(=O)[nH]2)cc1
. | i | CCCn1c(-c2ccc(F)cc2)nc2c(NCC3CCN(C)CC3)nc(C)nc21
>57 | i | Cc1cc(NC(=O)COc2ccccc2)n(-c2ccccc2)n1
. | i | N[C@@H](C(=O)O)[C@@H]1C[C@H]1C(=O)O
>57 | i | COc1ccc(NC(=O)C(C)N(c2ccc(C)cc2)S(C)(=O)=O)c(OC)c1 (configuration not stated)
. | i | CCOc1ccccc1CNC(=O)c1cc2occc2n1C
. | i | Cc1nc2ccccc2c(=O)n1NCc1cc(Br)cs1
>57 | i | CCN(Cc1ccccc1)S(=O)(=O)c1ccc2oc(C(=O)O)c(C)c2c1
>11 | i | CN(C)S(=O)(=O)c1cccc(C(=O)Nc2ccc(Cl)cn2)c1
>57 | i | CCCC(=O)NCc1ccc2c(c1)cc(C)n2C
>57 | i | CCn1c2ccccc2c2cc(C3C(C#N)=C(N)OC4=C3C(=O)CC(C)(C)C4)ccc21 (configuration not stated)
>11 | i | O=C(CC1Nc2ccccc2NC1=O)Nc1ccccc1 (configuration not stated)
>57 | i | CCOc1ccc(OCC)c(NS(=O)(=O)c2cccc3nsnc23)c1
>57 | i | c1ccc(Cc2nn3c(C4COc5ccccc5O4)nnc3s2)cc1 (configuration not stated)
>57 | i | c1ccc(NC(=NCc2ccco2)c2ccccc2)cc1
>26 | . | CCOc1ccc(/C(O)=C2/C(=O)C(=O)N(CCN(C)C)C2c2ccccc2)cc1Cl (configuration not stated)
>57 | i | Cc1c(NC(=O)c2ccccc2NS(=O)(=O)c2ccc(F)cc2)c(=O)n(-c2ccccc2)n1C
. | i | CC(C)CC(=O)Nc1ccc2oc(-c3cccnc3)nc2c1
>57 | i | COc1ccc(CNCCNC(=O)c2ccco2)c(OC)c1OC
>57 | i | CCC(=O)c1ccc(OCCn2cncn2)cc1
>57 | i | Cc1ccc(C)c(CSc2nnc([C@@H](N)C(C)C)o2)c1
>57 | i | CC(=O)N1CCN(c2ccccc2NC(=O)c2cc(Br)ccc2Cl)CC1
. | i | Cn1c(C(=O)N2CCN(c3ccc(F)cc3)CC2)cc2c(=O)n(C)c3ccccc3c21
>57 | i | COCCCn1c(CCC(=O)O)ccc1-c1ccc(F)cc1
. | i | Cc1nc(N2CCOCC2)c2nc(-c3ccccc3)n(CCN3CCCCC3)c2n1
>57 | i | CSC1=C(C#N)C(c2cccs2)CC(=O)N1C (configuration not stated)
. | i | CSc1oc(-c2ccco2)nc1S(=O)(=O)c1ccc(F)cc1
. | i | COc1ccc2c(c1)OC1(C)CC2C(C(=O)c2ccccc2OC)C(=O)N1 (configuration not stated)
. | i | CCCCCN=C(C)c1c(O)c2ccccc2oc1=O
>57 | i | CCCCOc1ccc(Cl)cc1CSc1nncn1N
>57 | i | O=C(CSc1nnc(CNc2ccc(Cl)cc2)n1Cc1ccccc1)NCc1ccco1
>57 | i | COCCCNC(c1ccccc1)c1ccncc1 (configuration not stated)
>57 | i | CCOC(=O)c1ncn2c1C(=O)OC2(C)C
>57 | i | Cc1cc(C(=O)CN2C(=O)c3ccccc3C2=O)c(C)n1C1CC1
. | i | CC(=O)NCCNc1nc(-c2ccccc2C)nc2ccccc12

# 4 of the compounds above, as labelled records:
SMILES: CS(=O)(=O)N1CCC2(CCN(Cc3ccc(C#N)cc3)CC2)CC1
  Bst PK mod: . | YjeE inh: i
SMILES: Cc1c(NC(=O)C2Cc3ccccc3CN2C(=O)c2ccco2)c(=O)n(-c2ccccc2)n1C (configuration not stated)
  Bst PK mod: >57 | YjeE inh: i
SMILES: CN(Cc1ccccc1)C(=O)CCCn1c(=O)[nH]c2cc(Cl)ccc2c1=O
  Bst PK mod: . | YjeE inh: i
SMILES: Cc1ccc(O)c(CNc2ccccn2)c1
  Bst PK mod: >57 | YjeE inh: i

# The list is partial; the hit share may differ from the screen's.
